# gsp agonist = qHTS for Agonist of gsp, the Etiologic Mutation Responsible for Fibrous Dysplasia/McCune-Albright Syndrome: qHTS; Potency, µM (series often up to 76.9 µM), without a hit: at the top dose activation (cAMP increase), hits mostly activators; AID 624287, 2012; gsp mutant cells, cAMP HTRF, 30 min; control for the full effect not named in the record; 340,000 compounds, 0.13% hits; active = well fitted activation curve with a large enough effect; inconclusive = small, poorly fitted or top-dose-only effect, or another doubt; inactive = no such curve, though single readings can be large or run the other way; cell line not stated here;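 further: phosphodiesterase inhibitor Ro 20-1724 added with compounds to block cAMP breakdown; potency means the concentration at half of the fitted maximal effect; nearly all actives have a fitted effect of over 60% in size; about a fifth of the inactives were tested at one dose only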
#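 Cells in DMEM/10% FBS with G418 were pretreated with compounds in DMSO plus […] (300 uM stock) for 30 min at 37C. cAMP was measured by HTRF (cAMP-d2 plus anti-cAMP antibody-K) after 30 min at room temperature.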
# ClpP mod = qHTS Assay for Activators of ClpP; ATP-dependent Clp protease proteolytic subunit (Bacillus subtilis (strain 168)), P80244; 340,000 compounds, 1.9% hits; purified B. subtilis ClpP, FRET peptide cleavage, 20 min; Potency, µM (top dose mostly 57.5 µM), inactives show at the top dose activity change, negative = active; active = well fitted falling curve with a large enough effect; inconclusive = small, poorly fitted or top-dose-only effect; inactive = no such curve, though single readings can be large or run the other way; further: potency means the concentration at half of the fitted maximal effect; the source files actives as falling curves though it sought activators and does not explain the sign; nearly all actives have a fitted effect of over 65% in size; many hits overshoot -100%
# Target sequence (P80244 whole entry, looked up): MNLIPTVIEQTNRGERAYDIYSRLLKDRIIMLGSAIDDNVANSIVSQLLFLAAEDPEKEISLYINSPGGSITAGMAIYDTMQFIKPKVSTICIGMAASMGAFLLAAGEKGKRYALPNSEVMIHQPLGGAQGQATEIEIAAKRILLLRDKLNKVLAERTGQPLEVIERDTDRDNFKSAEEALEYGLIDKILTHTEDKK
#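 Buffer: 100 mM Tris/HCl pH8, 100 mM KCl, 0.05% low protease BSA, 2.5% glycerol, 0.01% Tween-20. ClpP 10 microg/mL final; 20 min RT; delta FRET normalized to ADEP and DMSO controls.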
# Sfp inh = qHTS Assay for Inhibitors of Bacillus subtilis Sfp phosphopantetheinyl transferase (PPTase); AID 1490, 2009; 310,000 compounds, 3.5% hits; Potency, µM, without a hit: max response, negative = inhibition, actives largely listed as inhibitors; Biochemical Sfp PPTase activity, qHTS; active means well fitted inhibition curve with a large enough effect; inconclusive means small, poorly fitted or top-dose-only effect, or another doubt; inactive means no such curve, though single readings can be large or run the other way;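 further: the enzyme is Sfp with the accession as filed and its product quenches rhodamine fluorescence; potency means the concentration at half of the fitted maximal effect; 0% = enzyme reaction without inhibitor and -100% = no enzyme wells; top concentration of the series not given in the record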
#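 Compounds were incubated with enzyme (final 15 nM) for 15 min at room temperature before substrate addition started the reaction. Fluorescence at 525 nm excitation, 598 nm emission was recorded immediately and after 30 minutes.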
# PINK1 modulator = A Quantitative High throughput Screen to Identify Chemical Modulators of PINK1 Expression; PINK1 immunofluorescence, high-content cytometry, 24 h; Potency, µM (doses to about 76.6 µM), inactives show top-dose activation (PINK1 increase), usual class: activators; 410,000 compounds, 0.2% hits; active = well fitted activation curve with a large enough effect; inconclusive = small, poorly fitted or top-dose-only effect; inactive = flat fitted curve, though single readings scatter; cell line not stated here;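 further: potency means the concentration at half of the fitted maximal effect; % of control where 0% means no effect; nearly all actives have a fitted effect of over 65% in size; a mitochondrial uncoupler was the plate control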
#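 Decision-based qHTS: stable cells, 24 h exposure to five compound concentrations, CCCP as control. Fixed cells stained for PINK1 plus nuclear, mitochondrial and cell markers, cytometer read.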
# D2 agonist = Beta-Arrestin HTS for Positive Allosteric Modulators of the Human D2 Dopamine Receptor: Agonists; DiscoveRx PathHunter D2 beta-arrestin, luminescence, 90 min; 100% = 57 uM dopamine signal; activation, % (test concentration not listed); 360,000 compounds, 0.084% hits; AID 624465, 2012; in the data active = activation above about 40%; inconclusive = about 15% to 40%; inactive = below about 15%; further: compound concentration not given in the record; the text of the record calls up to 30% inactive
# Target sequence (P14416 whole entry, looked up): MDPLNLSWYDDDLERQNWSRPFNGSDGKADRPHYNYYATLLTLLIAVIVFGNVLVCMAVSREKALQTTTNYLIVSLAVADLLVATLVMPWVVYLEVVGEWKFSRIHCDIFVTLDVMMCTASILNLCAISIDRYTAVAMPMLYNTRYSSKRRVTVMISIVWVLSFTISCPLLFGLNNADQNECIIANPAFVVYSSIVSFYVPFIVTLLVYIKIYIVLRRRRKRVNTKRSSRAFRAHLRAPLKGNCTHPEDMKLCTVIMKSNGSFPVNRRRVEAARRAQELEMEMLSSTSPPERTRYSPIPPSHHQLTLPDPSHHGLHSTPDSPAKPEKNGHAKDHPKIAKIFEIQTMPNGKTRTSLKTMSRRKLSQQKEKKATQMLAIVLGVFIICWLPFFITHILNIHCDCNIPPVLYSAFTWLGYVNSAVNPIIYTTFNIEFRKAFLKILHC
#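 DiscoveRx PathHunter D2 beta-arrestin cells (2,100/well) attached overnight, then compound-stimulated 90 min at 37 C in HBSS/10 mM HEPES/0.1% Tween-20 buffer; beta-galactosidase complementation read by luminescence after 1 h at ambient temperature. Dopamine 57 uM final (EC100) as control.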
# gsp antag = qHTS for Antagonists of gsp, the Etiologic Mutation Responsible for Fibrous Dysplasia/McCune-Albright Syndrome: qHTS | gsp-mutant cells, cAMP HTRF, 30 min; control for the full effect not named in the record | AID 624288, 2012 | 340,000 compounds, 0.4% hits | Potency, µM (doses to about 76.9 µM), for inactives: top-dose activity change, negative = inhibition, most hits filed as inhibitors; active = falling curve of any shape with a large fitted effect; inconclusive = falling curve, mostly with a smaller effect; inactive = flat or rising curve; cell line not stated here;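 further: intracellular cAMP measured with PDE inhibitor Ro 20-1724 present during compound exposure; potency means the concentration at half of the fitted maximal effect; on the % scale 0 is the no-effect control and ±100 the full control effect; nearly all actives have a fitted effect of over 65% in size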
#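 G418-selected cells were plated in DMEM/10% FBS for 16-24 h at 37C, then treated with compounds plus the PDE inhibitor […] (300 uM solution added) for 30 min at 37C. Intracellular cAMP was measured by HTRF after 30 min lysis at room temperature.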
# Menin-MLL FL inh = qHTS Assay for Inhibitors Targeting the Menin-MLL Interaction in MLL Related Leukemias: Competition With Fluorescein Labeled MLL-derived Peptide. Fluorescence polarization, fluorescein-MLL peptide displacement from menin. FP activity change, % at 61.4 µM. 290,000 tested, under 10 active. AID 1766, 2009; inconclusive = falling polarisation curve, or a change in total fluorescence; inactive = total fluorescence flat and polarisation flat or rising; no compound was filed as active; the % refers to the polarisation; negative = inhibition;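 further: % of control where 0% means no effect; inhibitors lower the polarisation; unlabelled MLL peptide was the positive control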
# Active calls of the source: *; u = inconclusive; x = not tested or not shown; [ ] = another dose, or the depositor's remark.
SMILES,gsp agonist,ClpP mod,Sfp inh,PINK1 modulator,D2 agonist,gsp antag,Menin-MLL FL inh
O=C(Cn1cc(/C=N/NC(=O)c2ccccc2Br)c2ccccc21)Nc1ccc(F)cc1,3.8%,-10.6%,u,2.4%,0.9,-6.3%,5.0
O=C(COc1ccc2ccccc2c1Br)NCc1ccccn1,10.2%[15.4 µM],x,7.0%,0.8%,-1.5,x,3.4
CC(NC(=O)C1CCCN(C(=O)N(C)C)C1)c1ccccc1 (stereo unspecified),9.0%,-1.1%,24.6%,2.1%[38.3 µM],-2.9,-0.1%,4.5
Cc1csc(NC(=O)c2cccc([N+](=O)[O-])c2C(=O)O)n1,3.5%,-1.4%,10.6%,-1.1%,0.2,-3.2%,3.5
CCOc1ccc(NC(=O)CNc2ccc(C)cc2Cl)cc1,-10.0%,-3.6%,2.4%,1.3%,-1.3,-12.8%,-1.1
Cc1cc(C)nc(Sc2nc(C)nc3c2oc2ccccc23)n1,-5.1%,-11.4%,14.7%,0.1%,-0.9,-6.8%[15.4 µM],5.9
CN(C)c1nc(OCC(=O)NC(C)(C)C)nc(N(C)C)n1,-7.7%,-1.0%,20.9%,-0.5%,-3.3,2.6%,0.1
CCCCNC(=O)C1c2cc(OC)c(OC)cc2C(=O)N(C)C1c1ccc(OC)cc1 (stereo unspecified),-5.2%,-8.9%,10.7%,1.7%,-2.6,-4.8%,0.5
Cc1ccc2oc(=O)n(CC(=O)OCCC(C)C)c2c1,17.6%,-0.7%,8.1%,1.6%,5.2,3.6%,-4.2
Cc1ccc(C)c(N2C(=O)C3C4C=CC(CC4)C3C2=O)c1 (stereo unspecified),-13.1%,-2.9%,-2.3%,0.1%,11.2,12.4%,0.0
COc1ccc(COC(=O)C2=C(C)NC(=O)NC2c2ccc(OC)c(OC)c2)cc1 (stereo unspecified),4.7%,1.0%,11.9%,0.8%,-2.2,-3.1%,-1.5
O=C(CSc1nnnn1-c1ccc(F)cc1)NCc1cccs1,1.7%[15.4 µM],0.1%,12.6%,1.0%,-2.8,7.2%,0.1
Cc1cccc(NC(=O)C2CCCN(C(=O)Nc3ccccc3)C2)c1C (stereo unspecified),-1.8%,0.7%,2.5%,-2.5%,-3.4,-1.5%,-1.3
COc1cccc(C(=O)N(Cc2ccco2)Cc2cc3cccc(C)c3[nH]c2=O)c1,-47.8%[inhibitor],u,1.9%,-0.9%,-0.4,-18.9%,-1.8
Cn1c(CNC(=O)c2ccccc2F)nnc1SCC(=O)Nc1nncs1,-26.3%,x,-2.0%,-1.1%,0.0,-11.0%,1.0
COc1cc(S(=O)(=O)n2ccc(C)n2)c(C)cc1C,2.4%,-0.5%,x,0.6%,2.4,x,x
O=C1C2C3C=CC(C2C(=O)N1CCO)C1C(=O)N(CCO)C(=O)C31 (stereo unspecified),9.1%,1.7%,21.4%,0.5%,5.8,-2.4%,9.4
COc1ccc(OC)c(C(=O)COC(=O)c2cccnc2SC)c1,-6.3%[15.4 µM],x,x,6.3%,3.6,-7.2%,x
NS(=O)(=O)c1ccc(NC(=S)NCc2cccs2)cc1,7.1%[15.4 µM],x,20µM*,1.4%,1.1,9.6%,-1.9
CC[C@H](C)[C@H](NC(N)=O)C(=O)Nc1ccccc1F,12.9%[15.4 µM],x,15.9%,0.9%,-1.9,3.9%,0.0
COc1cc(/C=N/n2c(COc3ccccc3)n[nH]c2=S)cc(OC)c1OC(C)=O,-0.5%,2.7%,u,0.0%,10.2,-19.7%,0.5
CCc1nc2ccccc2c(C(=O)OCC(=O)N(CC(C)C)c2c(N)n(Cc3ccccc3)c(=O)[nH]c2=O)c1C,-52.9%[inhibitor],0.8%,x,1.9%,-3.9,-2.4%,x
CC(=O)NCC(=O)N(c1ccccc1)C1(C(=O)NC2CCCCC2)CCCCC1,10.3%,1.6%,24.2%,0.3%,-0.7,7.0%,1.1
CC(C)C[C@H]1CNC(=S)N1CC1CCN(CCCC2CCCCC2)CC1,x,-1.8%,x,2.7%,-1.9,8.3%,x
CCOC(=O)CNC(=O)c1cnn2cccnc12,13.0%,u,-17.9%,-0.1%,-0.2,8.4%,1.6
Cc1cc(OCC(=O)NCc2nc(-c3ccccc3)no2)c(C)cc1Br,-14.7%,2.7%,-18.1%,10.0%,-1.3,8.4%,3.0
CN(C(=O)c1ccc2c(=O)n3c(nc2c1)CCCCC3)c1ccccc1,-3.8%,0.1%,15.6%,0.3%,-1.4,5.2%,0.9
CC(=O)Nc1cc(-c2cccc(C(=O)N(C)C)c2)cn2c(-c3cccc(C(=O)N(C)C)c3)cnc12,x,u,x,0.7%,-4.4,x,x
COc1ccc2c(COC(=O)CNC(=O)C34CC5CC(CC(C5)C3)C4)cc(=O)oc2c1,-0.6%[15.4 µM],-8.4%,9.2%,3.4%,3.0,2.9%,8.3
COc1ccc(CNC(=O)CN(C(=O)c2snc(C(N)=O)c2N)c2ccc(OC)c(OC)c2)cc1,-0.4%[15.4 µM],x,16.6%,9.6%,3.3,u,4.4
COc1ccccc1-n1c(SCC(=O)N2CCCCC2)nnc1-c1ccccc1O,2.8%,-0.9%,3.8%,-2.5%[38.3 µM],-2.4,-10.9%,4.1
CC(C(=O)NCCS(=O)(=O)c1ccc(Cl)cc1)S(=O)(=O)c1ccccc1 (stereo unspecified),-13.8%,x,19.7%,1.5%,-0.8,-4.2%,-2.0
CCC(C)(C)NC(=O)C(c1cccn1C)N(C(=O)Cn1nnc2ccccc21)c1ccc(F)cc1 (stereo unspecified),u,0.6%,-4.1%,3.4%,1.0,-9.1%,-0.1
COc1cc(/C=N/OCC(=O)Nc2cc(C)on2)ccc1OCc1ccccc1,-1.8%,-2.9%,1.9%,u,-1.9,6.8%,6.6
O=C(O)CCCC(=O)NCCCCc1ccccc1,-26.1%,1.6%,7.3%,10.9%[38.3 µM],-2.2,-2.3%,-0.1
CN(C)Cc1ccccc1-c1cc(N(C)C)ncn1,x,x,-8.5%,0.7%,x,x,-1.6

# Single records (already shown). Order of screens: gsp agonist | ClpP mod | Sfp inh | PINK1 modulator | D2 agonist | gsp antag | Menin-MLL FL inh
# `COc1ccccc1-n1c(SCC(=O)N2CCCCC2)nnc1-c1ccccc1O` in the list: 2.8% | -0.9% | 3.8% | -2.5%[38.3 µM] | -2.4 | -10.9% | 4.1
# `O=C(O)CCCC(=O)NCCCCc1ccccc1` in the list: -26.1% | 1.6% | 7.3% | 10.9%[38.3 µM] | -2.2 | -2.3% | -0.1

# The list goes on:
SMILES,gsp agonist,ClpP mod,Sfp inh,PINK1 modulator,D2 agonist,gsp antag,Menin-MLL FL inh
Cc1ccc(S(=O)(=O)N2CCN(C(=O)C(C)Cn3cncn3)CC2)cc1 (stereo unspecified),-2.3%[15.4 µM],x,6.5%,0.3%,-1.9,4.2%,1.1
COC(=O)CSc1nc(C(C)C)nc2ccccc12,u,-1.1%,15.6%,3.1%,-1.4,7.0%,0.0
O=C(Cn1c(-c2ccc(Cl)cc2)noc1=O)N1CCN(c2ccccc2F)CC1,-1.2%,0.0%,12.2%,0.5%[38.3 µM],3.2,-24.6%,-0.3
CC(C)(C)C(=O)Nc1ccc(N2CCN(S(C)(=O)=O)CC2)cc1,19.4%,x,10.1%,u,0.9,1.3%,-2.6
O=C(NCC(O)c1nc2ccccc2[nH]1)c1ccc(Br)cc1 (stereo unspecified),x,0.3%,x,0.7%,1.9,x,x
O=C1c2ccccc2NC(c2ccccc2Br)N1CCCN1CCOCC1 (stereo unspecified),2.0%,u,0.8%,0.1%,-4.9,u,2.6
CC1C(=O)c2ccccc2CC1C(=O)O (stereo unspecified),10.0%,x,x,3.1%,-4.0,1.0%,x
Cc1cccc(NC(=S)NCc2ccncc2)c1C,10.7%[15.4 µM],-6.2%,-2.5%,0.4%,1.9,u,8.2
CC(Oc1ccccc1Cl)C(=O)N(Cc1cccs1)C1CCS(=O)(=O)C1 (stereo unspecified),18.0%,-1.5%,7.8%,0.0%,-5.1,-6.6%,4.2
Cc1sc(NC(=O)COc2ccccc2)c(C#N)c1C,15.5%,x,22.4µM*,6.0%,-2.4,-4.7%,5.7
CC(C(=O)OCC(=O)c1ccc(F)cc1)N1C(=O)C2C3C=CC(C3)C2C1=O (stereo unspecified),2.5%,x,-0.9%,0.7%,2.0,0.3%,-3.4
Cc1nn(CC(=O)NCCC2=CCCCC2)c(C)c1[N+](=O)[O-],-15.2%[15.4 µM],x,x,1.1%,0.0,-4.7%,x
COC(=O)c1ccc(NC(=O)c2ccc(NC(=O)C3CCCO3)cc2)cc1 (stereo unspecified),18.3%,-0.1%,13.1%,-0.8%,0.8,-4.0%,-4.8
COC(=O)CCSc1nccn1Cc1ccccc1,-1.3%,-0.7%,16.0%,2.8%[38.3 µM],1.2,10.9%,-7.6
N#CCc1c(C#N)c(N)nc(N2CCCC2)c1C#N,14.4%,-20.3%,x,1.5%,1.5,9.7%,x
COc1ccc(-c2noc(-c3ccccc3Cl)n2)cc1OC,0.7%,-0.6%,8.4%,5.1%[38.3 µM],1.3,7.4%,3.7
CC(=O)NC(c1ccccc1)c1nc(-c2ccc(C)c(C)c2)cs1 (stereo unspecified),x,1.5%,x,1.1%,-1.4,x,x
Cc1ccc(S(=O)(=O)N2CCCC2CNC(=O)C(=O)NC2CCCC2)cc1 (stereo unspecified),-12.4%[15.4 µM],x,x,1.5%,1.1,-2.5%,x
O=C(OCc1cncs1)c1ccccc1Cl,9.5%,x,9.9%,1.4%,4.4,-9.3%,-0.3
Cc1ccc(Cn2cccc(NC(=O)CCC3CCCC3)c2=O)cc1,12.2%[15.4 µM],x,-4.7%,1.4%,-3.4,-10.2%,-6.4
CCN(CC)S(=O)(=O)c1cccc(-n2c(O)c(C=Nc3ccccc3C(=O)O)c3ccccc3c2=O)c1,1.5%,-19.9%,2.2%,1.9%,8.0,-15.7%,9.7
